Screens: PubChem BioAssay, Sanford-Burnham Center for Chemical Genomics
HKDC1 inhibitor = inhibitors of human hexokinase HKDC1 | hit rate 0.16% among 340,000 | recombinant HKDC1, G6PDH/diaphorase resazurin coupled fluorescence | inhibition, % at 20 µM | AID 493160 | Q2TB90;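 active = inhibition above about 35% when tested at 20 µM, limit read from the data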;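 also: plate controls were DMSO wells with enzyme for no effect and DMSO wells lacking enzyme for full effect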
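System: Recombinant HKDC1 hexokinase | Amount: HKDC1 at 5 µg/mL | Reagent: Glucose with 1 mM ATP | Doses: Single 20 µM dose | Incubation: Reaction time 90 min, room temperature, protected from light | Signal: Coupled resazurin fluorescence, excitation 525 nm, emission 613 nm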
SENP6 inh = SENP6 protease inhibition | AID 2599 | inhibition, % at 10 µM | hit rate 1.8% among 330,000 | Q9GZR1 | Recombinant SENP6 catalytic domain, aminoluciferin luminescence;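 active = inhibition above about 50% at the single tested dose, limit read from the data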;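 also: plate controls were DMSO wells with enzyme for no effect and DMSO wells lacking enzyme for full effect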
SENP8 inh = SENP8 protease inhibition; hit rate 1.2% among 330,000; Q96LD8; AID 2540; purified SENP8, Z-RLRGG-aminoluciferin cleavage, luminescence; inhibition, % at 10 µM; in the data active = inhibition above about 50%
Target sequence (Q96LD8 whole entry, looked up): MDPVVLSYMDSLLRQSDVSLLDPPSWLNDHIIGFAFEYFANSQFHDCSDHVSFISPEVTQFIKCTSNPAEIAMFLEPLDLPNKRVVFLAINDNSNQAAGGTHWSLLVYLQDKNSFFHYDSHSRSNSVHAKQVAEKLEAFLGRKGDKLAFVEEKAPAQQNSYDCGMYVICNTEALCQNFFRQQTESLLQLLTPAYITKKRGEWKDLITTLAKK
SENP1 FRET inh = inhibitors of human SENP1 SUMO protease catalytic domain | recombinant SENP1 catalytic domain, CyPet-SUMO1-YPet FRET cleavage | inhibition, % at 10 µM | hit rate 0.21% among 360,000 | AID 624204;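 active = inhibition at least 30% at 10 µM, raw YFP signal under a set limit, fluorescence ratio 0.5 to 1.5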;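 also: 0% = enzyme with DMSO and 100% = no enzyme wells; some results filed as inactive read as strong as hits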
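System: Recombinant human SENP1 catalytic domain, His6-tagged | Incubation: Enzyme reaction for 50 min at room temperature, dark | Medium: Tris pH 8 with BME, BSA, NP40 and catalase | Also added: 25 nM SUMO1 FRET substrate | Compound: 10 µM single point, 0.5% DMSO | Measured by: FRET fluorescence in CFP and YFP emission channels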
SENP7 block = blocks the human protease SENP7; Q9BQF6; recombinant SENP7, Z-RLRGG-aminoluciferin luminescence, 40 min; inhibition, % at 5 µM; hit rate 1.5% among 330,000; AID 434973;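 active = inhibition above about 50% at the single test dose, limit read from the data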;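 also: plate controls were DMSO with enzyme for no effect and no enzyme buffer wells for full effect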
* = called active by the depositor; · = not tested or not shown. Some of the compounds tested; rates above refer to the full screens.

Letter code: A = HKDC1 inhibitor; B = SENP6 inh; C = SENP8 inh; D = SENP1 FRET inh; E = SENP7 block
1) CCCCn1c(N)c(C(=O)OCC2CCCO2)c2nc3ccccc3nc21 (centres undefined)
  A = 12 | B = 0 | C = 9 | D = -117 | E = 4

2) COC(=O)c1c(N)n(Cc2ccc(OC)cc2)c2nc3ccccc3nc12
  A = 12 | B = 12 | C = 2 | D = -87 | E = 6

3) CC(C)[N+]12CCC(CC1)C(C(O)(c1ccccc1)c1ccccc1)C2 (centres undefined)
  A = -1 | B = -2 | C = 11 | D = 1 | E = 7

4) Nc1c(C(=O)OCC2CCCO2)c2nc3ccccc3nc2n1Cc1cccs1 (centres undefined)
  A = 5 | B = 18 | C = 15 | D = -40 | E = 10

5) COCCOC(=O)c1c(N)n(Cc2ccc(OC)cc2)c2nc3ccccc3nc12
  A = 11 | B = 15 | C = 11 | D = -88 | E = 29

6) CN1CCN(C(=O)COc2ccc(-c3nc4ccccc4s3)cc2)CC1
  A = -15 | B = 3 | C = -1 | D = 0 | E = -9

7) CN[C@H](C)[C@H](O)c1ccccc1
  A = -4 | B = -3 | C = 5 | D = -2 | E = 4

8) O=C(c1ccc2nc3ccc(Cl)cc3c(=O)n2c1)N1CCC2(CC1)OCCO2
  A = -12 | B = 6 | C = 10 | D = -107 | E = -2

9) O=c1ccc2cc(O[C@@H]3O[C@H](CO)[C@@H](O)[C@H](O)[C@H]3O)c(O)cc2o1
  A = -6 | B = · | C = · | D = -25 | E = ·

3 compounds from above, sorted by length of the SMILES, lowest first.
Letter code: A = HKDC1 inhibitor; B = SENP6 inh; C = SENP8 inh; D = SENP1 FRET inh; E = SENP7 block
7) CN[C@H](C)[C@H](O)c1ccccc1
  A = -4 | B = -3 | C = 5 | D = -2 | E = 4

3) CC(C)[N+]12CCC(CC1)C(C(O)(c1ccccc1)c1ccccc1)C2 (centres undefined)
  A = -1 | B = -2 | C = 11 | D = 1 | E = 7

5) COCCOC(=O)c1c(N)n(Cc2ccc(OC)cc2)c2nc3ccccc3nc12
  A = 11 | B = 15 | C = 11 | D = -88 | E = 29

Single records, as listed above. Screens in order: HKDC1 inhibitor	SENP6 inh	SENP8 inh	SENP1 FRET inh	SENP7 block
Entry for `O=C(c1ccc2nc3ccc(Cl)cc3c(=O)n2c1)N1CCC2(CC1)OCCO2` : -12	6	10	-107	-2
Entry for `CN1CCN(C(=O)COc2ccc(-c3nc4ccccc4s3)cc2)CC1` : -15	3	-1	0	-9
Entry for `COCCOC(=O)c1c(N)n(Cc2ccc(OC)cc2)c2nc3ccccc3nc12` : 11	15	11	-88	29
Entry for `O=c1ccc2cc(O[C@@H]3O[C@H](CO)[C@@H](O)[C@H](O)[C@H]3O)c(O)cc2o1` : -6	·	·	-25	·
